PINK1 expr mod = A Quantitative High throughput Screen to Identify Chemical Modulators of PINK1 Expression; PINK1 immunofluorescence, high-content cytometry, 24 h; 0.2% of 410,000 active; AID 624263, 2012; Potency, µM (series often up to 76.6 µM), for the others: top-dose activation (PINK1 increase), actives largely listed as activators; active = well fitted activation curve with a large enough effect; inconclusive = small, poorly fitted or top-dose-only effect; inactive = flat fitted curve, though single readings scatter; cell line not stated here;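 also: potency is read from the fitted curve at half-maximal effect; % of control where 0% means no effect; nearly all actives have a fitted effect of over 65% in size; a mitochondrial uncoupler was the plate control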
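Fluorescence from anti-PINK1 antibody, together with nuclear and cell stains, was scanned on a laser-scanning cytometer. Before staining, stable-line cells were incubated 24 hours with compounds at 5 concentrations; primary antibody 12 h at 10 degrees C.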
TRPV1 potentiator = HTS Assay for Compounds that Act as Potentiators of the Vanilloid Receptor 1; potentiation, % at 8.33 µM; 0.02% of 320,000 active; Transient receptor potential cation channel subfamily V member 1 (Homo sapiens), Q8NER1; TRPV1-expressing cells, Fluo-8 calcium influx, capsaicin EC20 potentiation; host cell line not named in the record; control for the full effect not named in the record; active means potentiation above 80%; inconclusive means 30% to 80%; inactive means below 30%; also: 0% is about no effect
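TRPV1-expressing cells were cultured overnight at 35.5C and loaded with Fluo-8 calcium dye for 40 to 90 min at room temperature. After a 10 s baseline, compound was added and calcium influx was read kinetically for 3 min (ex 480/em 520 nm).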
Menin-MLL FL inh = qHTS Assay for Inhibitors Targeting the Menin-MLL Interaction in MLL Related Leukemias: Competition With Fluorescein Labeled MLL-derived Peptide; 290,000 tested, under 10 active; FP activity change, % at 61.4 µM; Fluorescence polarization, fluorescein-MLL peptide displacement from menin; AID 1766, 2009; inconclusive = falling polarisation curve, or a change in total fluorescence; inactive = total fluorescence flat and polarisation flat or rising; no compound was filed as active; the % refers to the polarisation; negative = inhibition;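 also: % of control where 0% means no effect; inhibitors lower the polarisation; unlabelled MLL peptide was the positive control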
TRPML1 blocker = qHTS for Inhibitors of the Human Mucolipin Transient Receptor Potential 1 (TRPML1); Mucolipin-1 (Homo sapiens), Q9GZU1; TRPML1-inducible cells, Ca2+ dye fluorescence, FDSS; hits give low values; inhibition of EC80 agonist-evoked calcium signal; activity change, negative = inhibition, % (concentration not given with the values); 0.02% of 390,000 active; AID 624415, 2012; in the data active means activity change below about -50%; inconclusive means about -30% to -50%; inactive means above about -30%;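 also: stimulus is agonist 54-4 at its EC80 concentration; % is scaled to controls: 0 for no effect and ±100 for the full control effect; compound concentration not given in the record; the text of the record puts the active cut at -80%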
Target sequence (Q9GZU1 whole entry, looked up): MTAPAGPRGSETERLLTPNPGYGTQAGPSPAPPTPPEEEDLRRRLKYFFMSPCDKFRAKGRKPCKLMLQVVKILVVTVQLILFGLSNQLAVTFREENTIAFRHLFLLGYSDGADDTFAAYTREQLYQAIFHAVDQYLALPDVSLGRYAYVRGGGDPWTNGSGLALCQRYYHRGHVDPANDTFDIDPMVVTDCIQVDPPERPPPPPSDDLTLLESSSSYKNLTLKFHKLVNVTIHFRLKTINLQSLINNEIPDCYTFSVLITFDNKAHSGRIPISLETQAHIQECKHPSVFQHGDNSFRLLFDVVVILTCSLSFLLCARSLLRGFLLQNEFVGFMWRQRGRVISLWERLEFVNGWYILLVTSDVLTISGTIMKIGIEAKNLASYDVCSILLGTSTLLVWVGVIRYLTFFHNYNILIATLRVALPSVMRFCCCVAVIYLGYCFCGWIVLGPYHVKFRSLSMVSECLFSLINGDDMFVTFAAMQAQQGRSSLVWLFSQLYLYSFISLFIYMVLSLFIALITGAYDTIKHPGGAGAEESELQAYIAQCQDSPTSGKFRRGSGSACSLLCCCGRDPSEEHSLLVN
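Calcium fluorescence in TRPML1-DL cells induced overnight with Tet: a 110 s read after compound pin addition, then a 110 s antagonist read after challenge with 54-4 at 4 uM final (EC80).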
ClpP mod = qHTS Assay for Activators of ClpP; 1.9% of 340,000 active; Potency, µM (highest dose often 57.5 µM), inactives show at the top dose activity change, negative = active; purified B. subtilis ClpP, FRET peptide cleavage, 20 min; ATP-dependent Clp protease proteolytic subunit (Bacillus subtilis (strain 168)), P80244; active = well fitted falling curve with a large enough effect; inconclusive = small, poorly fitted or top-dose-only effect; inactive = no such curve, though single readings can be large or run the other way; also: potency is read from the fitted curve at half-maximal effect; the source files actives as falling curves though it sought activators and does not explain the sign; nearly all actives have a fitted effect of over 65% in size; many hits overshoot -100%
Target sequence (P80244 whole entry, looked up): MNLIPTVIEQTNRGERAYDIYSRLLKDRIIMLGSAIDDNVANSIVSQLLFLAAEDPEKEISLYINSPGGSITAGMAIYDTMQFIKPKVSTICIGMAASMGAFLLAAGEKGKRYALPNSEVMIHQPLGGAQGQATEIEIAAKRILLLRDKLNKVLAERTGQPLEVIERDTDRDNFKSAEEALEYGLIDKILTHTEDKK
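Purified B. subtilis ClpP, 10 microg/mL final in Tris/HCl pH8 with KCl, BSA, glycerol and Tween-20, cleaved an Abz/nitrotyrosine-quenched decapeptide. Fluorescence (ex 320, em 430) was read at 0 and 20 min at room temperature. Delta was normalized to 5.8 microM ADEP and DMSO/no-enzyme controls.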
Sfp inh = qHTS Assay for Inhibitors of Bacillus subtilis Sfp phosphopantetheinyl transferase (PPTase); 3.5% of 310,000 active; AID 1490, 2009; 4'-phosphopantetheinyl transferase ffp (Bacillus subtilis), Q9F4F7; Biochemical Sfp PPTase activity, qHTS; Potency, µM, without a hit: max response, negative = inhibition, actives largely listed as inhibitors; active = well fitted inhibition curve with a large enough effect; inconclusive = small, poorly fitted or top-dose-only effect, or another doubt; inactive = no such curve, though single readings can be large or run the other way;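 also: the enzyme is Sfp with the accession as filed and its product quenches rhodamine fluorescence; potency is read from the fitted curve at half-maximal effect; 0% = enzyme reaction without inhibitor and -100% = no enzyme wells; top concentration of the series not given in the record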
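Fluorescence-quenching assay with 15 nM Sfp, 5 uM rhodamine-CoA and 12.5 uM BHQ-2-labelled ybbR peptide in pH 7.6 Hepes/MgCl2 buffer. Enzyme was pre-incubated with compound for 15 min at room temperature. Rate was taken from the 30-min fluorescence change (525/598 nm).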
TRPML1 ag = qHTS for Agonists of the Human Mucolipin Transient Receptor Potential 1 (TRPML1); TRPML1-expressing cells, Ca2+ dye fluorescence, FDSS; host cell line not named in the record; reference of the full effect not given here; activation, % (test concentration not listed); 0.12% of 410,000 active; AID 624414, 2012; in the data active = activation above about 50%; inconclusive = about 30% to 50%; inactive = below about 30%; also: 0% is about no effect; the text of the record puts the active cut at 80%
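Cells: TRPML1-DL, 1X Tet inducer, ~16 h at 37 degrees C/5% CO2. Dye: ABD Ca8 no-wash + quencher, 45-90 min RT. Read: 10 s baseline, compound add, 110 s agonist phase; 54-4 EC80 (4uM final), 110 s antagonist phase.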
Starred values were filed as active, the others as inactive; u = inconclusive; x = no result given; & = joins results of further samples; [ ] = dose if it differs, or a comment.

SMILES | PINK1 expr mod | TRPV1 potentiator | Menin-MLL FL inh | TRPML1 blocker | ClpP mod | Sfp inh | TRPML1 ag
Cc1nnsc1C(=O)Oc1ccc(Cl)cc1 | -1.9% | x | x | 17 | -2.6% | x | -0.6
COc1cc(S(=O)(=O)NCc2ccncc2)c(OC)cc1Br | 1.4% | 5 | x | -1 | 1.4% | 13% | 0.2
Cc1nc2c3cccnc3nn2c(C)c1CCC(=O)NCc1ccccc1 | 2.0% | x | x | -11 | 3.8% | x | -0.3
Cc1ccc2[nH]c(-c3ccccc3)c(CN3CCN(C)CC3)c(=O)c2c1 | 0.4%[38.3 µM] | 2 | 2.1 | -4 | -7.8% | 15% | 0.4
Nc1nonc1-n1nnc(C(=O)N/N=C/c2cccc(Cl)c2)c1CN1CCCC1 | 6.5% | x | x | -16 | -1.8% | x | 0.0
COc1ccc(C2SCC(=O)N2c2c(C)n(C)n(-c3ccccc3)c2=O)c(OC)c1 (configuration not stated) | 1.1% | 0 | 0.0 | -17 | -2.9% | 6% | 0.4
C=CCn1c(SCCC#N)nnc1-c1ccncc1 | 0.7% | -3 | 1.1 | 5 | 0.6% | -6% | 0.8
c1ccc(N2CCN(c3cnccn3)CC2)nc1 | 0.0% | 8 | -1.4 | 13 | -4.7% | 4% | -0.6
CN1C(=O)[C@H]2[C@@H](c3ccc(C(F)(F)F)cc3)N[C@]3(CCCN(Cc4ccc(F)cc4)C3=O)[C@H]2C1=O | -1.5% | x | x | -12 | 1.1% | x | 0.7
CCN1CCN(CCCNC(=O)CCC(=O)N2CCOc3ccc(Cl)cc32)CC1 | 0.4% | -2 | -8.5 | -5 | -0.9% | 9% | 0.3
Cc1cc(Cl)ccc1NC(=O)CSc1n[nH]c(N)n1 | 2.1% | -8 | x | 1 | -2.0% | x | 1.0
COc1ccc(CC2(CO)COc3ccccc3C2=O)cc1 (configuration not stated) | -0.1% | x | x | 5 | 0.5% | x | -0.3
CC(=O)Nc1ccc(S(=O)(=O)N2CCN(c3nc(C)cc(C)n3)CC2)cc1 | 1.5% | -20 | -2.4 | -2 | -16% | -9% | -0.5
Nc1cc(=O)[nH]c(SCC(=O)NCC2CCCO2)n1 (configuration not stated) | 1.1% | 17 | -2.0 | -11 | -2.1% | -7% | 0.8
CCN(c1ccccc1)S(=O)(=O)c1ccc(Oc2ccc([N+](=O)[O-])cc2)nc1 | -2.1% | 7 | x | 3 | -0.6% | x | 0.3
Cc1c(NC(=S)NCc2ccc(F)cc2)cccc1[N+](=O)[O-] | 4.9% | -15 | 2.4 | 16 | -0.4% | -7% | 2.4
Cc1ccc2sc(C)[n+](CCCS(=O)(=O)[O-])c2c1 | 5.0% | -1 | 0.1 | 29 | x | 2.8µM* | 0.5
CN1CCN(C(=O)c2cc(COc3c(F)cccc3F)on2)CC1c1ccccc1 (configuration not stated) | -2.2% | -2 | -1.8 | -10 | x | 10µM* | 1.6
S=C(NCc1ccccn1)Nc1ccc(Cl)cc1 | -1.9% | -3 | 1.0 | 79 | -25% | 2% | 0.3
O=C(c1cccc(F)c1)N1CCC2(CC1)CCN(c1ncccn1)CC2 | 0.0% | x | 1.5 | x | x | 7% | x
Cc1cccc(/C(N)=N/OC(=O)c2ccco2)c1 | -1.8% | 1 | 0.5 | -4 | -2.8% | 12% | -0.9
Cc1cccc(C(=O)N2CCCC(Nc3ccc(C(C)C)cc3)C2)n1 (configuration not stated) | -0.2% | -5 | 0.8 | 9 | -1.2% | 19% | -0.7
C[C@@H]1CN([C@@H](C)CO)C(=O)c2cc(NS(=O)(=O)c3cccs3)ccc2O[C@H]1CN(C)Cc1ccc(C(F)(F)F)cc1 | 8.1% | x | x | 2 | -1.2% | x | 0.1
Nc1c(C(=O)N2CCOCC2)sc2nc3c(cc12)CCC3 | 0.2% | -4 | 0.2 | x | 0.8% | 1% | x
CCCc1cc(=O)[nH]c2nnc(SCCC(C)C)n12 | -5.3% | x | x | 10 | -0.8% | x | 0.7

Complete entries, quoted from the list. Order of screens: PINK1 expr mod	TRPV1 potentiator	Menin-MLL FL inh	TRPML1 blocker	ClpP mod	Sfp inh	TRPML1 ag
`Nc1c(C(=O)N2CCOCC2)sc2nc3c(cc12)CCC3` in the list: 0.2%	-4	0.2	x	0.8%	1%	x
`S=C(NCc1ccccn1)Nc1ccc(Cl)cc1` in the list: -1.9%	-3	1.0	79	-25%	2%	0.3
`Nc1cc(=O)[nH]c(SCC(=O)NCC2CCCO2)n1` (configuration not stated) in the list: 1.1%	17	-2.0	-11	-2.1%	-7%	0.8

(listing goes on)
SMILES | PINK1 expr mod | TRPV1 potentiator | Menin-MLL FL inh | TRPML1 blocker | ClpP mod | Sfp inh | TRPML1 ag
O=C(N/N=C/c1cc([N+](=O)[O-])cc([N+](=O)[O-])c1O)C(O)(c1ccccc1)c1ccccc1 | 0.5% | 7 | x | -5 | 2.0% | x | 1.1
Cc1noc(C)c1S(=O)(=O)N1CCC(C(=O)NCCCN2CC(C)CC(C)C2)CC1 (configuration not stated) | -0.6% | 9 | 2.1 | 25 | x | 8% | -0.2
CC(C)NC(=O)c1ccccc1-c1ccccc1 | -3.9% | 1 | -0.3 | 3 | -1.4% | 12% | -0.9
C/C(=N\Nc1ccc(C(F)(F)F)cn1)c1ccncc1 | -0.8% | -3 | 0.0 | 1 | -2.2% | 5% | 1.0
Cc1n[nH]c(C)c1CCC(=O)N/N=C/C=C/c1ccccc1 | 2.5% | 1 | -0.2 | -4 | -1.6% | 25% | -0.8
CCc1ccc(NC(=O)Cn2c(=O)n(-c3ccc(OC)cc3)c(=O)c3ccc(C(=O)NCc4ccc(C)cc4)cc32)cc1 | 2.4% | x | x | 11 | -2.2% | x | -0.3
CC(C)CNC(=O)c1cccc(C(=O)NCC(C)C)c1 | -2.8%[38.3 µM] | 2 | 3.7 | 18 | 0.3% | 5% | -0.2
CC(NC(=O)CNC(=O)c1ccccc1F)c1ccc(-n2ccnc2)cc1 (configuration not stated) | -0.9% | 0 | x | 22 | -0.7% | x | 0.0
COc1ccc(-n2c(=O)[nH]c3cc(C(=O)NCCc4ccccc4)ccc3c2=O)cc1OC | -0.2%&-0.8% | 3 | -28 | -20&0 | -6.0%&-1.3% | 5% | 0.1&-0.9
Cc1ccc([N+](=O)[O-])cc1NC(=O)C(C)NS(=O)(=O)c1ccc(F)cc1 (configuration not stated) | 0.5% | 0 | 0.7 | 0 | x | 12% | 0.6
CCC(C)NC(=O)COC(=O)c1cc([N+](=O)[O-])ccc1Sc1nc(C)cs1 (configuration not stated) | 0.3% | -1 | -3.3 | 52 | u | 2% | -0.4
CCCN(CCC)C(=O)C1CCN(c2ncnc3c2nc2n3CCCCC2)CC1 | -3.1% | x | x | 22 | 0.4% | x | 1.5
COc1cc2c(cc1OC)C(=O)N1[C@H]3c4cc(C)ccc4OC[C@@H]3[C@H](c3ccccc3)[C@]1(C)C(=O)N2 | 6.7% | x | x | 9 | -5.3% | x | 0.3
Cc1ccnc(NC(=O)c2cc(F)c(F)cc2Cl)n1 | 0.8% | -6 | 0.4 | 21 | x | 10% | -0.4
CCCCCc1cc(=O)oc2c(C(CCN3CCCCC3)c3ccc4c(c3)OCO4)c(OC)cc(OC)c12 (configuration not stated) | -1.4% | 16 | 0.5 | -11 | -27% | 56µM* | 1.2
COc1cc2nc3occc3c(OC)c2cc1OC | -0.2% | 10 | -0.6 | -8 | 4.0% | 20% | -0.4
COc1ccc(Cl)cc1C(=O)NCC(C)C | 1.3% | 8 | 0.4 | -4 | -0.9% | 12% | -0.4
C#CCSc1nnc(CSc2nc3ccccc3s2)n1-c1ccccc1 | -2.3% | -4 | 3.9 | 17 | -5.2% | -12% | 2.3
CC1(C)Cc2c(sc3nc4n(-c5ccccc5)cnn4c(=O)c23)CO1 | -2.0% | 1 | -4.4 | 9 | -0.8% | 5% | -0.1
Cc1cccc(NC(=O)Cn2nnc(C(=O)NCc3ccco3)c2N)c1 | 2.1%&1.5% | -11 | -6.1 | 8&13 | -1.9%&-2.3% | -7% | -0.3&-0.8
CS(=O)(=O)N(Cc1ccc(Cl)cc1)c1ccc(C(=O)Nc2cccnc2)cc1 | 40%[38.3 µM] | -9 | 1.2 | 19 | -1.2% | 17% | 4.1
Cc1ccccc1-c1noc(CNC(=O)COc2ccccc2)n1 | 0.5% | -1 | x | 6 | 0.0% | 7% | 1.3
O=C(CSc1ncn[nH]1)c1cccc([N+](=O)[O-])c1 | -0.3% | u | 3.5 | 19 | x | 50µM* | 2.5
Cc1ccc(CNC(=O)c2cc(C3CC3)nc3c2cnn3C(C)C)cc1 | 5.1% | -10 | x | 17 | 4.5% | x | 2.6
COc1ccccc1CCNC(=O)CSc1nnc2ccc(-c3ccncc3)nn12 | -0.1% | 28 | 2.2 | x | 1.3% | 19% | x
Cc1ccc(S(=O)(=O)N2CCN(c3ccccc3)CC2)cc1C(=O)NC1CCCCC1 | 0.8% | -16 | x | 6 | -0.5% | 9% | 0.8
COc1ccc(-c2csc(NC(=O)c3ccc(S(C)(=O)=O)cc3)n2)cc1 | 4.9% | -10 | 0.2 | 7 | -7.8% | -18% | 0.1
CCn1nc(C(=O)OCC(=O)Nc2nc(-c3ccc(OC)cc3)cs2)c2ccccc2c1=O | -0.4% | 1 | 7.4 | 10 | -1.1% | 3% | 5.4
Cc1noc(C)c1-c1cncnc1NCc1cccnc1 | 0.3% | x | -1.2 | x | x | 56µM* | x
O=C(CSc1ncnc2nc[nH]c12)c1ccc2ccccc2c1 | 3.0% | -4 | -0.9 | 2 | -10% | -9% | -0.6
